Screening data from PubChem BioAssay.
Ab BasE inh = blocks the Acinetobacter baumannii siderophore enzyme BasE. 0.1% of 84,000 active. purified BasE, fluorescence polarization binding displacement. inhibition, % (test concentration not listed);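 active = both replicates above 25% with normal brightness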;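 note: 0% = negative plate control signal and 100% = positive plate control signal; stock transfer was 100 nL into about 30 µL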
LANA-nucl inh = inhibitors of KSHV LANA binding to nucleosomes; FITC-LANA1-23 / chicken nucleosome fluorescence polarization; active compounds read low; 0.3% of 51,000 active; z-score (concentration not given with the values);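 active = both repeat wells score below -2 in polarization z-score versus plate sample wells, excluding overly bright wells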;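 note: 100 nL library stock added to about 30 µL; numbers are from one replicate; some results filed as inactive read as strong as hits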
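test system = FITC-LANA peptide and chicken nucleosomes | amount = 240 nM purified chicken nucleosomes (480 nM peptide binding sites), final | reagent = 50 nM FITC-LANA1-23 probe | medium = TEN-BT buffer, pH 7.5 | doses = single compound addition by pin transfer, 100 nL per well | timing = 10–45 min, room temperature | detection = fluorescence polarization | repeats = duplicate plates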
* marks the source's active call; other numbers are inactive results; nt = no result given; & = joins results of further samples. Not all compounds are listed, so the mix of outcomes need not match the whole.

A first look:
SMILES	Ab BasE inh	LANA-nucl inh
COc1cc2c(cc1OC)CN1C(=S)N(C)C(=O)C1C2 (configuration not stated)	0.6	-0.86
COc1ccccc1C1CCN(C(=O)[C@@H](C)N2CCN(c3ccc(C(F)(F)F)cn3)CC2)CC1	1.6	-0.61
CCOc1ccc(NC(=S)N2C(C)CCCC2C)cc1 (configuration not stated)	-0.2	0.066
Cc1cc(C)nc(N2CCC(C(=O)Nc3nnc(C(C)C)s3)CC2)n1	0.9	-0.25

All compounds of this part, from the start:
SMILES	Ab BasE inh	LANA-nucl inh
COc1cc2c(cc1OC)CN1C(=S)N(C)C(=O)C1C2 (configuration not stated)	0.6	-0.86
COc1ccccc1C1CCN(C(=O)[C@@H](C)N2CCN(c3ccc(C(F)(F)F)cn3)CC2)CC1	1.6	-0.61
CCOc1ccc(NC(=S)N2C(C)CCCC2C)cc1 (configuration not stated)	-0.2	0.066
Cc1cc(C)nc(N2CCC(C(=O)Nc3nnc(C(C)C)s3)CC2)n1	0.9	-0.25
CCC(C)n1nccc1N (configuration not stated)	1.1	nt
S=P(N1CC1)(N1CC1)N1CC1	-3.5	0.33&0.66
O=P1(NCCCn2ccnc2)C=C(c2ccccc2)OC(c2ccccc2)=C1	-1.8	nt
COC(=O)c1cc(-c2ccc(OC)cc2)n[nH]1	-1.4	-0.14
Cc1ccc2c(c1)N(CC(=O)N1CCCCC1C)C(=O)CO2 (configuration not stated)	-0.7	-1.1
Cc1c(NC(=O)[C@@H](NC(N)=O)C(C)C)c(=O)n(-c2ccccc2)n1C	2.3	nt
Cc1ccc(SCCC(=O)NN)cc1	0.8	nt
CN1C(=O)CSc2ccc(NC(=O)Nc3cccnc3)cc21	16	0.059
CCOC(=O)c1sc(N)c(C#N)c1CSc1ncnc2sc(CC)cc12	-31	nt
COc1ccc(-n2c(O)c(C=NCC(c3ccco3)N3CCCC3)c3ccccc3c2=O)cc1OC (configuration not stated)	-7.6	nt
Cc1ccc(-c2noc(CCCC(=O)N(C)C)n2)cc1	-1.6	-0.65
COC(=O)c1ccc(-c2ccccn2)s1	-0.9	-0.32
c1ccc(OCCCCN2CCCCC2)cc1	1.6	0.29
Cn1c(=O)oc2cc(S(=O)(=O)Nc3ccccc3)ccc21	-2.2	-0.66
CC(=O)N/C(=N/c1nc(C)cc(C)n1)Nc1cccc(C)c1	-0.7	-0.19
CCCCN1C(=O)c2ccc(C(=O)NCc3ccco3)cc2C1=O	-1.1	2
O=C(CSc1nc2ccccc2c(=O)[nH]1)c1ccc(O)cc1O	0.6	0.61
O=C(O)CSCC(=O)NC1CCCCNC1=O (configuration not stated)	-0.3	0.31
O=C(CN1CCN(CN2C(=O)NC3(CCCC3)C2=O)CC1)Nc1ccc(Cl)c(C(F)(F)F)c1	0.7	nt
O=C(N/N=C/c1ccncc1)c1ccccc1	0.1	-0.52
Cc1ccc(NC(=O)CSc2nncn2N)cc1C	-0.8	1.1
O=C(OCN1C(=O)c2ccccc2C1=O)C1CCN(S(=O)(=O)c2ccc3c(c2)OCCO3)CC1	3.5	nt
CCCN(C(=O)C(C)(C)C)c1nc(-c2ccccc2)cs1	0.7	-0.013
CS(=O)(=O)c1ccc(Cl)c(N)c1	-0.2	nt
Cc1ccnc(NC(c2ccco2)c2c(C)[nH]c3ccccc23)c1 (configuration not stated)	3.9	nt
COc1ccc(CN=C(N)N=C(N)N)cc1	3.6	-0.4

7 entries from above, as a markdown table.
| compound | Ab BasE inh | LANA-nucl inh |
| --- | --- | --- |
| O=C(CN1CCN(CN2C(=O)NC3(CCCC3)C2=O)CC1)Nc1ccc(Cl)c(C(F)(F)F)c1 | 0.7 | nt |
| CS(=O)(=O)c1ccc(Cl)c(N)c1 | -0.2 | nt |
| O=C(OCN1C(=O)c2ccccc2C1=O)C1CCN(S(=O)(=O)c2ccc3c(c2)OCCO3)CC1 | 3.5 | nt |
| Cc1ccnc(NC(c2ccco2)c2c(C)[nH]c3ccccc23)c1 (configuration not stated) | 3.9 | nt |
| O=C(N/N=C/c1ccncc1)c1ccccc1 | 0.1 | -0.52 |
| CCCN(C(=O)C(C)(C)C)c1nc(-c2ccccc2)cs1 | 0.7 | -0.013 |
| Cc1ccc(NC(=O)CSc2nncn2N)cc1C | -0.8 | 1.1 |

The listing continues:
SMILES	Ab BasE inh	LANA-nucl inh
Cc1ccc(C)n1-c1sccc1C(=O)CC#N	nt	-0.43
CCN1C(=O)/C(=C/C=C2\N(C)c3c(ccc4cccnc34)C2(C)C)SC1=S	-2.5	nt
C/C(N)=C(/C#N)C(=O)CSc1nc(-c2ccccc2)cn1N	-0.7	nt
CC(=O)Nc1ccc(/C=N/N2CCCCC2)cc1	0.4	nt
O=C(NC1CCCC1)c1ccc(COc2ccccc2Br)o1	0.1	1.1
O=C(CC(c1ccccc1)c1ccco1)N1CCCCC1 (configuration not stated)	2.2	-1.4
CC12CC(C)(C)C(C#N)(C(N)=C1C#N)C(=C(C#N)C#N)N2 (configuration not stated)	1.1	-0.37
Cc1sc(-c2cccs2)nc1-c1ccccc1	-1.6	nt
Cn1c(=O)n(C)c2cc(Nc3cc(SCc4ccccc4)ncn3)ccc21	0.8	0.31
COc1ccc(C(=O)N/N=C(\Cc2ncc[nH]2)c2ccccc2)cc1	-0.3	nt
Cc1csc(=O)n1CCC(=O)OCc1cc(Cl)cc2c1OCOC2	1.0	nt
Cc1ccc(-c2nnc3c4cnn(-c5ccccc5)c4ncn23)cc1	2.9	nt
Cc1cc(OCC(=O)NCc2cccnc2)c(C)cc1Br	-0.8	-1.6
Cc1cc(Oc2ccc(Cl)cc2)nc(-c2ccccn2)n1	0.5	-0.91
COc1cccc(N2CCN(C(=O)CCCn3sc4ccccc4c3=O)CC2)c1	-0.1	-0.62
CCc1c(C)c(C#N)c2nc3ccccc3n2c1-n1cnc2ccccc21	-1.9	-0.6
O=c1c2c3c(sc2nc2n1CCCCC2)/C(=N/O)CCC3	0.3	2
CCN(CC)S(=O)(=O)c1ccc(C(=O)N2CCN(C3=NS(=O)(=O)c4ccccc43)CC2)cc1	3.0	-0.38
Cc1nnc(SCc2cc(=O)oc3cc(O)ccc23)n1Cc1ccccc1	-3.2	nt
O=C(CSc1nc2ccccc2c(=O)n1CCCO)c1ccc2c(c1)OCO2	-0.2	nt
COC(=O)c1c(NC(=O)c2nc3ccccc3s2)sc2c1CCN(C(C)=O)C2	0.0	-1.8
COc1ccc(CN(Cc2nc3ccccc3c(=O)[nH]2)C(=O)NCc2ccccc2)cc1	22	0.12
O=C(OCc1nc2scc(-c3ccccc3)c2c(=O)[nH]1)c1cccc(-n2cnnn2)c1	-2.1	nt
COC(=O)/C(=C\N(C)C)S(=O)(=O)c1cc(C)c(Cl)cc1C	1.7	0.19
O=C(CCN1C(=O)COc2ccccc21)Nc1ccc2c(c1)OCCCO2	1.2	nt
c1ccc(-c2noc(C34CC5CC(CC(C5)C3)C4)n2)cc1	4.8	0.65
COc1ccc(C2CCCCCN2C(=O)c2cccc(N3CCCC3=O)c2)cc1 (configuration not stated)	0.9	nt
Cc1cccc(NC(=O)CSc2nncc(=O)[nH]2)c1	1.5	0.22
CC(=O)Nc1nc2ccc(S(=O)(=O)N3CCOCC3)cc2s1	0.5	0.054
O=C(Cn1ncc(Cl)c(Cl)c1=O)N1CCCC1c1ccc2c(c1)OCCCO2 (configuration not stated)	-0.6	nt
Cc1c(C(=O)N2CCN(c3ccccc3)CC2)oc2c1C(=O)CCC2	-0.1	-0.88
O=C1CC(c2ccccc2Cl)NC(=O)N1 (configuration not stated)	1.8	nt
O=C1C=C(N2CCOCC2)C(=O)c2ccccc21	-2.1	nt
COCc1cc(=O)[nH]c(SCC(=O)C(C)(C)C)n1	-0.8	nt
COc1ccccc1C(=O)NCCN1CCCC1	1.2	-0.47
COC(=O)c1cc(S(=O)(=O)N2CC(C)CC(C)C2)c[nH]1 (configuration not stated)	3.8	-0.15
N#Cc1c(N)n(CCNS(=O)(=O)c2ccccc2)c2nc3ccccc3nc12	-48	nt
N#C/C(=C\N1CCCCC1)S(=O)(=O)c1ccc(Cl)cc1	-1.3	nt
COc1ccc2[nH]cc(CCNC(C)=O)c2c1	-1.0&2.0	0.21&-0.86&-0.034
CCNc1c(N)c(=O)oc2ccccc12	2.8	nt
c1ccc(N2CCN(c3ncccn3)CC2)cc1	nt	1.1
O=C1c2ccccc2C(=O)N1Cc1ccc2c(c1)OCO2	5.8	-0.37
CC1(C)Cc2c(c(-c3ccccc3)[nH]c(=O)c2C#N)CO1	0.5	1.1
COc1ccccc1NC(=O)c1cc(-c2ccc(C)o2)nc2ccccc12	2.1	nt
COC(=O)c1ccc(CO/N=C(\N)c2ccc(C(C)(C)C)cc2)o1	3.3	-0.23
CN1CCN(C(CNC(=O)NC(C)(C)C)c2ccc(F)cc2)CC1 (configuration not stated)	3.4	-0.23
CCOc1ccccc1C(=O)NCC(=O)Nc1ccc2c(c1)OCO2	3.7	nt
O=C(NCCCc1ccccc1)Nc1c[nH]c2ccccc2c1=O	1.7	-0.011
Cc1nc2ccccc2c(=O)n1CC(C)C	-0.3	0.6
COc1ccccc1NC(=O)CN(Cc1ccco1)C(=O)c1ccc(Cl)nc1	-0.6	nt
More records follow.
SMILES	Ab BasE inh	LANA-nucl inh
O=C1C(=Cc2ccc(N3CCCC3)cc2)C(=O)c2ccccc21	-5.6	-8.3
COc1cc2c(C#N)c(N3CCCCC3)nc(N)c2c(N)n1	-1.1	nt
COCCN=C1SC(C(=O)Nc2cccc(C#N)c2)C(N)=C1C(=O)N1CCN(C)CC1 (configuration not stated)	0.0	nt
CCc1cc(=O)oc2c(C)c3occ(-c4ccc(Cl)cc4)c3cc12	2.4	nt
O=C1c2ccccc2C(=O)N1CCSc1ncnc2c1cnn2-c1ccccc1	0.4	-0.24
CCOC(=O)c1noc2c1COc1ccccc1-2	2.7	-0.63
CCCN1CCN(C(=O)c2cn(C)c(=O)c3cc(OC)c(OC)cc23)CC1	1.7	0.24
O=C(c1ccccc1)N1CCN(C2CCCCC2)CC1	-0.7	0.34
Cc1ccc(C)c2[nH]c(=O)c(CCNC(=O)CC(C)(C)C)cc12	-0.2	-0.42
Cc1nc(SCc2ccc(C#N)cc2)c(C#N)c(-c2ccco2)c1C(=O)N(C)C	0.4	nt
Cc1cc(C)c2nc(SCC#N)cc(C)c2c1	1.1	nt
COc1cc(C#N)ccc1OCC(=O)N(C)CC(=O)Nc1ccc(F)cc1	-0.3	nt
CC(C)N1C(=O)S/C(=C/c2ccc(Sc3nc4ccccc4[nH]3)o2)C1=O	-0.8	nt
CCCc1nc2ccccc2c(NC(=O)CN(CC)CC)c1CC	0.3	0.068
CC1CC(C)CN(C(=O)Cn2ncc3ccc(Cl)cc32)C1 (configuration not stated)	4.2	0.7
Cc1cc(C(F)(F)F)nc(NCCc2ccccc2)n1	0.2	1.2
OC(CNCCc1ccccn1)C(F)(F)F (configuration not stated)	nt	0.48
O=C(CSc1nc(=O)n2ccccc2n1)N1CCCC1	-0.2	-0.53
CCc1ccc(OCC(=O)NCCN2CCOCC2)cc1	-0.6	0.41
N#Cc1ccccc1COC(=O)C1COc2ccccc2O1 (configuration not stated)	9.4	nt
Cn1cnnc1SCC(=O)O	-0.1	-0.34
CN(C)C=Nc1ccccc1C1C=NNC1=O (configuration not stated)	-0.8	nt
Cc1nn(-c2ccccc2)c(C)c1NC(=O)CN1CC(C)OC(C)C1 (configuration not stated)	-0.8	nt
CCS(=O)(=O)NCC(c1ccco1)N1CCN(c2ccc(F)cc2)CC1 (configuration not stated)	-0.1	0.18
Cc1cccc(NC(=O)NCC(c2ccco2)N2CCc3ccccc3C2)c1 (configuration not stated)	-0.1	-0.64
CN(C)S(=O)(=O)c1ccc(C(=O)OCC(N)=O)cc1	0.6	nt
COC(=O)c1oc2ccccc2c1-n1cccc1	nt	-0.62
O=C(CO/N=C/c1ccccc1OC(F)F)N1CCCc2ccccc21	-1.4	nt
C#CCNc1nc(CC(C)C)nc2c1nnn2Cc1ccccc1	-0.2	-0.62
CN(C)S(=O)(=O)c1ccc(C(=O)OC2CCCC2)cc1	-3.3	nt
CC(O)CNC(=O)Cc1cc(=O)[nH]c(=O)[nH]1 (configuration not stated)	1.9	-0.34
N#C/C(=C\c1ccccc1O)S(=O)(=O)c1ccc(Cl)cc1	0.3	nt
CCc1nc2ccccc2n1CC(C)C(=O)O (configuration not stated)	-0.3	2.6
Cc1cc2c(n1-c1ccc(C(=O)NCc3cccs3)cc1)CCC(C)C2 (configuration not stated)	-9.0	0.31
O=C1c2ccccc2C(=O)N1C(CO)C(O)c1ccccc1 (configuration not stated)	-0.6	nt
Cc1ccc(OCc2nc3ccc(N)cc3[nH]2)cc1	-2.8	0.2
Cc1nn(CC(C)C)c(Cl)c1/C=C1/C(=O)N(C)C(=S)N1C	0.8	nt
O=C(NC1CCN(c2ncccn2)CC1)C1CC1	2.0	-1.4
O=C(NCc1ccccn1)C1CCC(CNS(=O)(=O)c2ccc(F)cc2)CC1 (configuration not stated)	25	1.3
COc1cccc(C(=O)NCCN2CCN(c3nccc(C(F)(F)F)n3)CC2)c1	1.4	nt
O=C(c1cc(-c2ccccc2)c(N2CCCCC2)s1)n1ccnc1	-0.8	0.8
Nc1cc(C2CCCC2)nn1-c1ccccc1	0.8	nt
O=C(OCc1cc(F)cc2c1OC(c1ccccc1)OC2)C1CC(=O)N(Cc2ccco2)C1 (configuration not stated)	1.1	nt
CC1CCCC(NC(=O)CSc2ccc3c(c2)OCCO3)C1C (configuration not stated)	-0.9	nt
Cc1c(C#N)sc(-c2ncn[nH]2)c1C	-1.6	0.12
CCOC(=O)N1CCN(c2cc(N3CCC(C)CC3)c3c4c(onc24)-c2ccccc2C3=O)CC1	-7.7	-1
